# miR-21 reporter – qHTS Assay for Modulators of miRNAs and/orActivators of miR-21 | HeLa miR-21 FLuc reporter, luciferase, 48 h | Potency, µM (doses to about 38.3 µM), inactives show top-dose reporter change, positive = more light | AID 2288, 2010 | 340,000 tested, under 10 active; active = well fitted rising curve with a large enough effect; inconclusive = small, poorly fitted or top-dose-only effect; inactive = no such curve, though single readings can be large or run the other way;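 note: % of control where 0% means no effect; miR-21 action dims this reporter so a rising signal means less miR-21 action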
#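 HeLa cells endogenously expressing miR-21, stably carrying CMV-driven firefly luciferase with a downstream miR-21 binding site, 2000 cells/well. Titrations up to approximately 40 uM, 48 hours; luciferase luminescence read.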
# Rango dissoc inh – qHTS Assay for Inhibitors of RanGTP induced Rango (Ran-regulated importin-beta cargo) - Importin beta complex dissociation; Biochemical FRET Rango-importin beta, RanGTP-induced dissociation; Potency, µM (doses to about 46.1 µM), without a hit: at the highest dose activity change, negative = inhibition; 340,000 compounds, 0.071% hits; AID 540253, 2011; active means falling FRET ratio curve, often poorly fitted, with flat reads before Ran was added; inconclusive means other falling curves, or compound fluorescence or quenching; inactive means flat or rising ratio curve;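 note: potency is the fitted concentration of half-maximal effect; % of control where 0% means no effect; nearly all actives have a fitted effect of over 45% in size; -100% = wells without RanGTP and RCC1; the record marks most hits as doubtful in a second field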
#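 Rango FRET biosensor (snurportin-1 IBB flanked by N-terminal EYFP and C-terminal CFP10) at 0.1 uM, with 0.25 uM importin beta in PBS, 1mM DTT, 0.02% Tween-20, 0.1% BSA. 0.6 uM Ran, 2mM GTP and 0.2 uM RCC1 were then added for 45 min at room temperature. Inhibition read as loss of FRET rise.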
# Rango-impB inh – qHTS Assay for Inhibitors of Rango (Ran-regulated importin-beta cargo) - Importin beta complex formation | Importin subunit beta-1 (Homo sapiens), Q14974 | Rango CFP/YFP FRET sensor + importin beta, 45 min | Potency, µM (doses to about 92.2 µM), for inactives: at the top dose inhibition of complex formation | 340,000 compounds, 0.031% hits; active = rising FRET ratio curve, often small or poorly fitted; inconclusive = mostly compound fluorescence or quenching in the first reads; inactive = flat curves in all reads;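 note: potency is the fitted concentration of half-maximal effect; 0% = DMSO wells and 100% = buffer wells lacking importin beta; nearly all actives have a fitted effect of over 15% in size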
#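 FRET biosensor Rango (snurportin 1 IBB between N-terminal EYFP and C-terminal Cerulean), 50 nM in PBS/1 mM DTT/0.02% Tween-20/0.1% BSA, preincubated 5 min RT with compound; 0.125 microM importin beta added, 45 min RT, CFP/YFP FRET ratio read.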
# GLA inh pH 4.5 – qHTS Assay for Inhibitors of Human alpha-Galactosidase at pH 4.5. 230,000 tested, under 10 active. activity change, negative = inhibition, % at 105 µM. Alpha-galactosidase A (Homo sapiens), P06280. AID 1467, 2008. purified enzyme, 4-MU-alpha-Gal fluorescence, pH 4.5; inconclusive = small, poorly fitted or top-dose-only inhibition, or a rising curve; inactive = flat fitted curve, though single readings scatter; no compound was filed as active;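 note: 0% = full activity with enzyme and -100% = basal without enzyme; dose as in the result columns while the protocol names 77 µM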
# Target sequence (P06280 whole entry, looked up): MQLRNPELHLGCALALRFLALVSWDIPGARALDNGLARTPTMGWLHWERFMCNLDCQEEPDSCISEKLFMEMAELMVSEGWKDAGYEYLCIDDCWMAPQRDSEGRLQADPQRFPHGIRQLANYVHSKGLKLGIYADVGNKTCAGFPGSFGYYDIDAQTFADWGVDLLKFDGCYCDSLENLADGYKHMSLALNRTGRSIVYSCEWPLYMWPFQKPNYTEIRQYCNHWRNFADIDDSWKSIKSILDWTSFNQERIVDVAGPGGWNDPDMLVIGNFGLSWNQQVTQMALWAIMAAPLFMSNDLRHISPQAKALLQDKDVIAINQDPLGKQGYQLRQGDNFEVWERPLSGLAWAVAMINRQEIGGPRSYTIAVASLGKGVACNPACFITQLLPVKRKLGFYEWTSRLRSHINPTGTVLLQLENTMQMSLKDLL
# * marks the source's active call; other numbers are inactive results; ? = inconclusive; nt = no result given. An excerpt; rates above refer to the full screens.
No.	Compound	Rango-impB inh	Rango dissoc inh
1	CC(C)(C)OC(=O)N/N=C/c1cc(N=Nc2ccccc2)ccc1O	5.4%	15%
2	CC1CCc2nn(CC(=O)N3CCc4ccccc43)cc2C1 (stereo not drawn)	-4.0%	1%
3	CCc1ccc2nc(Nc3nc(COC)cc(=O)[nH]3)nc(C)c2c1	-6.4%	3%
4	O=C(NCc1nc(-c2ccccc2)no1)c1ccc2c(c1)OCO2	0.7%	0%
5	COC(=O)c1ccccc1NC(=O)COC(=O)CSCC(=O)N1CCOCC1	?	-5%
6	O=C(COC(=O)c1cnc(Cl)c(Cl)c1)c1ccc(F)cc1	-0.7%	11%
7	CN(C)c1cc[n+](CC(=O)Nc2ccc(Cl)c([N+](=O)[O-])c2)cc1	3.2%	-1%
8	CCCc1cc(C(=O)N(C)CC(=O)Nc2ccc(OCC)c(OCC)c2)sc1C	4.0%	-2%
9	COc1cc(NS(=O)(=O)c2ccc(NC(=S)NC(=O)/C=C/c3ccco3)cc2)ncn1	4.3%	-11%
10	O=C(COC(=O)c1cc(S(=O)(=O)N2CCOCC2)ccc1F)c1ccccc1	-2.4%	1%
11	CCOc1ccc(Br)cc1S(=O)(=O)NCc1ccc(S(N)(=O)=O)cc1	-4.2%	-5%
12	O=C(CSc1nnc(-c2cccs2)o1)N1CCOCC1	-2.9%	0%
13	O=C1NCCCc2c1oc1cc(Br)c(O)c(Br)c21	0.3%	-2%
14	O=C(C[C@@H]1C/C=C\C[C@H](Cc2ccc(F)cc2)C(=O)OC[C@@H]2CCCN2C1=O)N[C@H](CO)Cc1ccccc1	-3.0%	0%
15	CCCNC(=O)C(Cc1ccc(I)cc1)NC(=O)c1ccc2ccccc2n1 (stereo not drawn)	-5.3%	0%

No.	GLA inh pH 4.5	miR-21 reporter
1	4	-7%
2	-3	-26%
3	-21	-20%
4	8	-5%
5	12	-7%
6	nt	nt
7	nt	29%
8	nt	nt
9	-2	0%
10	nt	nt
11	8	-1%
12	7	-1%
13	-6	4%
14	nt	nt
15	nt	nt

No.	Compound	Rango-impB inh	Rango dissoc inh
16	O=C(c1cn(Cc2ccccc2)nc1-c1ccc(Cl)cc1)N1CCN(c2ccccn2)CC1	-2.5%	3%
17	COc1ccc2c(C)c(C(=O)N3CCN(Cc4ccccc4)CC3)oc2c1	0.0%	-9%
18	CCCc1c(O)c2ccccc2n(-c2ccccc2)c1=O	-0.6%	14%
19	CCOc1ccc(N2CC(C(=O)NC3CCCC3)CC2=O)cc1 (stereo not drawn)	-2.6%	2%
20	Cc1cc(N2CCOCC2)c(F)cc1C(=O)c1ccccc1	-2.3%	-6%
21	O=C(CN1CCCCCC1)Nc1ccc(S(=O)(=O)N2CCOCC2)cc1	0.7%	-1%
22	CC(C)c1nnc(SCC(=O)NCc2ccc3c(c2)OCO3)n1C	-1.0%	-2%
23	COc1ccc(NCC(=O)Nc2ccccc2C#N)cc1Cl	?	0%
24	O=S(=O)(NCc1ccccc1Br)c1ccccc1Br	0.8%	-8%
25	O=C(O)c1cc(S(=O)(=O)N(Cc2ccccc2)c2ccccc2)ccc1Cl	-1.6%	11%
26	CN1CCc2c(sc3c2c(=O)n(-c2ccccc2)c2nnc(SCc4ccc(Cl)cc4)n32)C1	-0.3%	-3%
27	COC(=O)c1sccc1NC(=O)CC1C(=O)NCCN1C(=O)Nc1cc(Cl)ccc1OC (stereo not drawn)	-4.3%	17%
28	Cc1ccc(C(=O)CSc2nnc(-c3ccccc3)o2)cc1	-0.4%	23%
29	COc1ccc(N(CC(=O)N2CCc3ccccc3C2)S(C)(=O)=O)cc1	-0.5%	-9%
30	O=c1oc(-c2ccc(Cl)c(Cl)c2)nn1-c1ccc(C(F)(F)F)cn1	-0.4%	0%

No.	GLA inh pH 4.5	miR-21 reporter
16	nt	nt
17	nt	-5%
18	8	-5%
19	nt	-4%
20	4	-3%
21	8	0%
22	0	-5%
23	-5	-4%
24	nt	nt
25	nt	-19%
26	-1	1%
27	-8	-1%
28	-1	-15%
29	-4	-4%
30	1	1%

No.	Compound	Rango-impB inh	Rango dissoc inh
31	COc1ccccc1NC(=O)CSc1nnc(CNC(=O)COc2ccc(Cl)cc2)o1	-1.5%	0%
32	CCOC(=O)C1=C(c2ccccc2)O/C(=C(/C#N)C(F)(F)F)S1	nt	nt
33	CCC(C)(C)NC(=O)CN(C(=O)c1snc(C(N)=O)c1N)c1ccc(OC)c(OC)c1	2.7%	1%
34	Cc1cccc(C)c1OCc1nnc(SCC(=O)NCCc2ccccc2)o1	-2.5%	-1%
35	Cc1ccccc1N(CC(=O)NCC1CCCO1)C(=O)CCC(=O)Nc1nccs1 (stereo not drawn)	7.6%	-14%
36	O=c1cc(CN2CCN(Cc3ccccc3)CC2)c2cc(O)ccc2o1	0.4%	9%
37	COc1cccc(CNc2ccc([N+](=O)[O-])c(NCC(=O)O)n2)c1	-1.6%	-6%
38	Cc1noc(C)c1S(=O)(=O)N1CCCC(C(=O)NCCc2ccc(Cl)cc2)C1 (stereo not drawn)	0.3%	1%
39	CNc1nc(N)c([N+](=O)[O-])c(NC2CCCCC2)n1	-2.0%	0%
40	COc1ccc(Cc2nc(-c3ccc(Br)o3)no2)cc1OC	-3.7%	-2%
41	Cc1ccccc1OCC(=O)N=Nc1c(O)n(C)c2ccccc12	0.5%	19%
42	CCn1cc(S(=O)(=O)NCCc2ccccc2OC)cn1	-2.5%	9%
43	CCOC(=O)/C(=N\Nc1ccccc1Cl)N1CCN(Cc2ccccc2)CC1	1.3%	-4%
44	Cn1c(SCC(=O)Nc2ccccc2F)nnc1-c1cccnc1	-1.8%	-3%
45	O=c1c2[nH]c3ccc(Cl)cc3c2ncn1CCN1CCCCC1	-2.7%	-6%

No.	GLA inh pH 4.5	miR-21 reporter
31	-9	3%
32	4	26%
33	2	-8%
34	4	-5%
35	nt	5%
36	nt	-1%
37	-2	1%
38	0	-13%
39	nt	-15%
40	5	-54%
41	-8	2%
42	nt	-1%
43	-3	-13%
44	5	-15%
45	-2	-14%

# Some of these compounds in order of molecular weight, lowest first:
No.	Compound	Rango-impB inh	Rango dissoc inh
39	CNc1nc(N)c([N+](=O)[O-])c(NC2CCCCC2)n1	-2.0%	0%
41	Cc1ccccc1OCC(=O)N=Nc1c(O)n(C)c2ccccc12	0.5%	19%
37	COc1cccc(CNc2ccc([N+](=O)[O-])c(NCC(=O)O)n2)c1	-1.6%	-6%
32	CCOC(=O)C1=C(c2ccccc2)O/C(=C(/C#N)C(F)(F)F)S1	nt	nt
44	Cn1c(SCC(=O)Nc2ccccc2F)nnc1-c1cccnc1	-1.8%	-3%
36	O=c1cc(CN2CCN(Cc3ccccc3)CC2)c2cc(O)ccc2o1	0.4%	9%
30	O=c1oc(-c2ccc(Cl)c(Cl)c2)nn1-c1ccc(C(F)(F)F)cn1	-0.4%	0%
34	Cc1cccc(C)c1OCc1nnc(SCC(=O)NCCc2ccccc2)o1	-2.5%	-1%
43	CCOC(=O)/C(=N\Nc1ccccc1Cl)N1CCN(Cc2ccccc2)CC1	1.3%	-4%
38	Cc1noc(C)c1S(=O)(=O)N1CCCC(C(=O)NCCc2ccc(Cl)cc2)C1 (stereo not drawn)	0.3%	1%
35	Cc1ccccc1N(CC(=O)NCC1CCCO1)C(=O)CCC(=O)Nc1nccs1 (stereo not drawn)	7.6%	-14%
33	CCC(C)(C)NC(=O)CN(C(=O)c1snc(C(N)=O)c1N)c1ccc(OC)c(OC)c1	2.7%	1%
31	COc1ccccc1NC(=O)CSc1nnc(CNC(=O)COc2ccc(Cl)cc2)o1	-1.5%	0%

No.	GLA inh pH 4.5	miR-21 reporter
39	nt	-15%
41	-8	2%
37	-2	1%
32	4	26%
44	5	-15%
36	nt	-1%
30	1	1%
34	4	-5%
43	-3	-13%
38	0	-13%
35	nt	5%
33	2	-8%
31	-9	3%

# (next part)
No.	Compound	Rango-impB inh	Rango dissoc inh
46	COc1cc(/C=N/NC(=O)c2cc(-c3cccn3C)n[nH]2)cc(OC)c1OC	0.9%	-8%
47	Fc1ccccc1N1CCN(c2nc3ccccc3n3nnnc23)CC1	?	?
48	COc1cccc(C2c3c(oc4ccc(F)cc4c3=O)C(=O)N2CCN2CCOCC2)c1OC (stereo not drawn)	-3.5%	-2%
49	Cc1nn(S(=O)(=O)c2ccc([N+](=O)[O-])cc2)c(C)c1Sc1ccccc1	0.1%	17%
50	CC(C)(C)c1nc(Sc2ccc([N+](=O)[O-])cn2)n[nH]1	3.4%	-12%
51	CC1(C(=O)Nc2ccc(S(=O)(=O)Nc3ncccn3)cc2)CCCC1	0.5%	-7%
52	Cn1c(/C(C#N)=C/c2ccc(O)cc2)nc2ccccc21	?	?
53	O=C(NNC(=O)c1cccs1)Nc1cccc(Cl)c1	3.0%	1%
54	O=C(O)c1cccc2c1/C(=N/O)c1ccccc1-2	-0.1%	1%
55	N/C(=N/OC(=O)c1ccc(Cl)cc1)c1ncc([N+](=O)[O-])s1	1.1%	9%
56	CC(=O)Nc1cccc(C(=O)OCCCOc2ccc(F)cc2)c1	1.3%	-18%
57	Cc1ccc(NC(=O)CSc2nc(O)cc(=O)n2-c2ccc(C)cc2)cc1	-4.0%	-3%
58	Cc1ccc(NC(=O)CCSc2ccccn2)cc1	-0.9%	-8%
59	CC(=O)N1CCN(S(=O)(=O)c2cccc(C(=O)NC3CCC(C)CC3)c2)CC1 (stereo not drawn)	5.0%	-15%
60	O=C1NC(Cc2ccccc2)C(=O)N1Cc1cc([N+](=O)[O-])cc2c1OCOC2 (stereo not drawn)	-1.6%	4%

No.	GLA inh pH 4.5	miR-21 reporter
46	0	9%
47	1	-6%
48	7	-13%
49	nt	nt
50	-3	4%
51	nt	nt
52	-7	-53%
53	8	-7%
54	nt	nt
55	3	-18%
56	nt	-18%
57	nt	-4%
58	-1	-88%
59	-2	-13%
60	-2	-5%

No.	Compound	Rango-impB inh	Rango dissoc inh
61	COc1ccc(Nc2nnc(SCC(=O)Nc3ccc4[nH]c(=O)[nH]c4c3)s2)cc1	3.0%	-18%
62	CCCCn1c(N)c(N(CCOC)C(=O)c2nn(CC)c(=O)c3ccccc23)c(=O)[nH]c1=O	?	-14%
63	CCn1cc(/C=N\NC(=O)Cc2ccc(Cl)cc2)cn1	-0.8%	4%
64	O=C(NCCO)Nc1ccc(Cl)cc1	-1.3%	3%
65	Cc1ccc(S(=O)(=O)NNC(=O)c2csnn2)cc1	52µM*	?
66	COc1ccc(C2CC(C(F)(F)F)n3ncc(C(=O)Nc4c(C)n(C)n(-c5ccccc5)c4=O)c3N2)cc1 (stereo not drawn)	-1.6%	17%
67	Cc1cccc(C)c1NC(=O)c1ccc(-n2cncn2)nc1	-2.3%	7%
68	COc1ccccc1NC(=O)COc1ccc2c(c1)OCO2	-2.1%	-22%
69	CC1CN(C(c2ccco2)c2sc3ncnn3c2O)CC(C)O1 (stereo not drawn)	-0.2%	-12%
70	Cc1cc(NS(=O)(=O)c2cc(Cl)sc2Cl)no1	-0.7%	-6%

No.	GLA inh pH 4.5	miR-21 reporter
61	-18	-4%
62	nt	nt
63	-9	-6%
64	3	-2%
65	-2	-2%
66	0	-4%
67	7	-3%
68	nt	-67%
69	3	1%
70	nt	-2%

# Screening data from PubChem.
